Bioassay records (PubChem BioAssay)
RanGTP-Impb inh: inhibitors of RanGTP-importin-beta interaction, primary screen, biochemical, FRET, CFP-Ran, YFP-importin-beta, homogeneous; cell-free CFP-Ran/YFP-importin-beta FRET ratio; inhibition, % (no concentration beside the values); actives 1.1% (n = 300,000); AID 2216;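 active = most replicates above 15%; inconclusive = exactly half above 15%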;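 note: 0% = DMSO wells and 100% = Ran loaded with GDP instead of GTP; wells of about 40 µL received 100 nL stock; the first replicate is given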
MLL AF4-AF9 inh: inhibitors of human MLL-AF4/AF9 interaction; P42568; AlphaScreen, biotin-AF4 peptide binding to FLAG-AF9; inhibition, % at 10 µM; actives 0.47% (n = 350,000); AID 651704;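 active = every replicate reaching a set inhibition limit, whatever the replicate mean, cut at about 25% in these data; inconclusive = mean inhibition reaches that limit but some replicates miss it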;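 note: 0% = plate neutral control median and 100% = total signal loss; the record names both 10 and 1 µM as test concentration; the first replicate is given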
Target sequence (P42568 whole entry, looked up): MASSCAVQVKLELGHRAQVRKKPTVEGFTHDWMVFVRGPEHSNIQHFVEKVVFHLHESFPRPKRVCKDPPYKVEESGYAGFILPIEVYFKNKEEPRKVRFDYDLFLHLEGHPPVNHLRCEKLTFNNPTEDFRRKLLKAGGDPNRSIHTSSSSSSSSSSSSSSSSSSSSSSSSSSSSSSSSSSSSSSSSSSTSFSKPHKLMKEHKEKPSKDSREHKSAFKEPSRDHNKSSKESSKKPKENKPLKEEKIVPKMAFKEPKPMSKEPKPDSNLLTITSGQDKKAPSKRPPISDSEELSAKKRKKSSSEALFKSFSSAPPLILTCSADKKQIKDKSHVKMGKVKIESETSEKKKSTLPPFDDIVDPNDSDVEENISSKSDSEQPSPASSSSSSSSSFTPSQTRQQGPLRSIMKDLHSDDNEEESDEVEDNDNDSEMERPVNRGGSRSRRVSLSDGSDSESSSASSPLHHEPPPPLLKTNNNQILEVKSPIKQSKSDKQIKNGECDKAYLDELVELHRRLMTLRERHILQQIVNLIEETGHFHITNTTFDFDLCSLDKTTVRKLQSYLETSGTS
FGF22 binding: binders of recombinant human FGF22 by thermal shift; Q9HCT0; SYPRO orange fluorescence; percent of sucrose octasulfate shift, DMSO zero; calls only at 9.99 µM; actives 1.5% (n = 340,000);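 active = melting point raised past a set limit in the mean and every replicate; inconclusive = no clear call; three in four hits are not shown here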
Target sequence (Q9HCT0 whole entry, looked up): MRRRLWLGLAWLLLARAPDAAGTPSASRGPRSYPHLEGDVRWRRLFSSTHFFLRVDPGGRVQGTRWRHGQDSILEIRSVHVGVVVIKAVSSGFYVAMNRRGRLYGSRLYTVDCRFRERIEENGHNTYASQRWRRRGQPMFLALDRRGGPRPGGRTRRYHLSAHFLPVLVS
T cruzi inh: blocks replication of Trypanosoma cruzi | T. cruzi beta-gal in NIH3T3, luminescence, 90 h | inhibition, % (concentration not given with the values) | actives 1.4% (n = 300,000);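 active = mean inhibition across valid replicates above about 55%, limit read from the data; inconclusive = mean below that limit but half or more replicates reach it; inactive = mean below it, under half of replicates reach it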;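 note: signal also drops with host cell toxicity which is not excluded here; 0% = plate median of DMSO wells and 100% = zero luminescence signal; higher percent means less beta-gal luminescence so fewer parasites; stock transfer was 50 nL into about 50 µL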
Beta cell apopt: beta cell apoptosis inhibition. INS-1E cytokine-induced death, ATP luminescence, 48 h; percent of positive-control rescue, neutral wells zero. actives 0.8% (n = 300,000). protection from apoptosis, % (test concentration not listed);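 active = all replicates at 75% or more, or half of them and the mean; inconclusive = half reach 75% but not the mean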;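 note: 0% = cytokine-treated negative control wells and 100% = positive control rescue; higher means more ATP so stronger rescue from cytokine killing; wells of about 40 µL received 100 nL stock; the first replicate is given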
Calb FLC: C. albicans growth modulation with fluconazole; C. albicans CaCi-2 (fluconazole-resistant clinical isolate) + fluconazole, Alamar Blue growth, 48 h; growth inhibition, % (concentration not given with the values); actives 0.57% (n = 300,000); AID 1979;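 active = most replicates above 75%; inconclusive = exactly half above 75%; inactive = most below 75%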;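 note: all wells also contain fluconazole at 8 µg/ml as a sub-toxic cotreatment; 0% = median of DMSO wells and 100% = median of geldanamycin control wells; wells of about 8 µL received 7.5 nL stock; the first replicate is given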
ALR inh: human ALR oxidase inhibition via reduced H2O2; P55789; purified ALR, DTT oxidation, H2O2 HRP-luminol luminescence; inhibition, % (concentration not given with the values); actives 3.8% (n = 290,000);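 active = mean and each replicate at 75% or more; inconclusive = only one of the two met; inactive = neither met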;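 note: stock transfer was 7.5 nL into about 7.5 µL; 0% = neutral wells and 100% = wells with inactivated enzyme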
Target sequence (P55789 whole entry, looked up): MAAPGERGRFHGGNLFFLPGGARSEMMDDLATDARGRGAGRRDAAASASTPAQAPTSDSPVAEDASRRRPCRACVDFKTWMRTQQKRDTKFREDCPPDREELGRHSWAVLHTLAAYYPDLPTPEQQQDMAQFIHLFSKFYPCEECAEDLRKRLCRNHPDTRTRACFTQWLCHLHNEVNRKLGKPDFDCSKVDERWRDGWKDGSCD
rRNA inh HTS: inhibitors of bacterial rRNA selective over humanized ribosomes. E. coli WT GFP vs humanized-ribosome RFP mutants, fluorescence, 24 h; hits give low values; DMSO median 0, no signal -100. GFP signal change (wild-type ribosome), % (test concentration not listed). actives 1.6% (n = 350,000);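 active = significant combined selectivity score with lowered wild-type GFP, culture density cut under 30%, mutant RFP and density less affected; inactive = any of these conditions unmet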; note: one replicate is shown; some compounds called inactive have numbers as strong as hits
rRNA inh HTS OD600: further read-out of rRNA inh HTS, marked with its call; OD600 change, %; measured here: OD600 growth;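 optical density of the mix in the first replicate; 0 = DMSO median and -100 = no signal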
rRNA inh HTS RFP: recorded beside rRNA inh HTS, whose call it bears; RFP signal change, %; measured here: RFP humanized mutant strains;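 first replicate; 0 = DMSO median and -100 = no signal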
* hit, by the source's call; i = inactive; ? = inconclusive; nt = no result given.

SMILES	RanGTP-Impb inh	MLL AF4-AF9 inh	FGF22 binding	T cruzi inh	Beta cell apopt	Calb FLC	ALR inh	rRNA inh HTS	rRNA inh HTS OD600	rRNA inh HTS RFP
COc1ccc(N2CC(NC(=O)Nc3ccccc3)CC2=O)cc1 (stereo not drawn)	4.1	3.2	i	11	3	-2	-5	3	3	0.4
O=C(COc1ccccc1Cl)N1CCN(c2ncccn2)CC1	3.0	nt	nt	7	-3	7	-1	nt	nt	nt
O=C(Nc1ccc(Cl)cc1F)c1ccc(COc2c(F)c(F)c(F)c(F)c2F)o1	1.0	nt	nt	-6	1	-8	-4	nt	nt	nt
CN(C)S(=O)(=O)c1ccc(C(=O)Nc2ccccc2C(=O)NCCCN2CCOCC2)cc1	nt	-1.3	i	nt	-5	nt	1	nt	nt	nt
NS(=O)(=O)c1ccc(NC(=O)COC(=O)CNC(=O)C23CC4CC(CC(C4)C2)C3)cc1	-1.0	-0.6	i	-11	-6	-5	11	-7	-1	3.6
O=C(NC(=S)Nc1nc2ccc(F)cc2s1)c1ccco1	2.9	-0.9	i	-11	-4	66	7	19	14	1.9
CC(=O)c1c(C)nc(C)nc1NC(=O)Cc1ccccc1	?	nt	nt	-9	-2	-3	-22	nt	nt	nt
CN1C(=O)S/C(=C/c2cccnc2)C1=O	0.8	nt	nt	1	-5	-8	-1	nt	nt	nt
Cc1cnc(C)c(N2CCN(Cc3nc(-c4ccc(C)o4)oc3C)CC2)n1	7.0	5.4	i	-8	-7	-26	-9	10	0	1.3
O=C1c2oc3ccc(Cl)cc3c(=O)c2C(c2ccccn2)N1CCCN1CCOCC1 (stereo not drawn)	-0.5	8.8	i	-4	-7	-6	15	-7	5	0.2
COc1cc(CNC(C)c2ccccc2)cc(Cl)c1OCC(=O)Nc1ccccc1 (stereo not drawn)	-1.2	0.5	i	3	-6	-10	nt	-44	-74	-7.0
CC(C)CCN(CC(=O)NCc1ccc(F)cc1)S(=O)(=O)c1ccccc1F	3.2	-27	i	0	5	7	6	-15	-20	-2.1
O=C1CCCN1CCNC(=S)Nc1ccccc1	-2.6	-43	i	-11	9	-14	-10	11	6	2.1
COC(=O)Cn1cc(C(=O)c2ccco2)c2ccccc21	2.5	nt	nt	-19	-5	-1	-5	nt	nt	nt
CCOC(=O)N1CCN(c2ccncc2S(=O)(=O)N2CCCCC2)CC1	2.4	-1.3	i	26	nt	2	-15	1	9	1.1
Cc1oc(CSCCSCc2cc(C(=O)O)c(C)o2)cc1C(=O)O	-6.9	1.7	i	-6	-2	0	-8	8	-3	1.0
CC(C)Cn1c(N2CCN(C(=O)c3cccs3)CC2)nc2ccccc21	-2.9	nt	nt	3	8	1	-15	nt	nt	nt
Cc1cc(N2CCOCC2)ccc1/C=C1\NC(=O)N(CC(=O)Nc2ccccc2C)C1=O	-2.6	nt	nt	-4	-7	-7	8	nt	nt	nt
CCn1c(SCc2ccc(C#N)cc2)nnc1-c1ccc(S(=O)(=O)N2CCCCC2)cc1	1.3	nt	nt	19	5	1	nt	nt	nt	nt
CCNC(=O)C1CN(S(=O)(=O)c2ccccc2)CCN1S(=O)(=O)c1ccccc1 (stereo not drawn)	3.2	-51	i	-4	nt	-15	-2	1	5	6.0
C[C@H]1CN([C@@H](C)CO)C(=O)c2cccc(NS(=O)(=O)c3cn(C)cn3)c2O[C@H]1CN(C)S(C)(=O)=O	nt	-1.5	i	nt	-7	nt	4	2	11	1.1
COc1ccc(C2=NN(C(=O)c3ccco3)C(c3cc4ccccc4nc3Cl)C2)cc1 (stereo not drawn)	-1.4	nt	nt	-10	4	7	-14	nt	nt	nt
COc1ccccc1NCCC(=O)OCC(=O)NC1CCCCCC1	2.0	1.2	i	-5	-1	0	99*	nt	nt	nt
CSc1nc2sc3c(c2c(=O)n1C)CCCC3	1.1	nt	nt	-22	2	-8	-5	nt	nt	nt
Cc1ccc(C)c(CNc2ccc(S(=O)(=O)N3CCCCC3)cc2)c1	nt	-0.2	i	nt	-1	nt	2	3	15	-0.8

Next part:
SMILES	RanGTP-Impb inh	MLL AF4-AF9 inh	FGF22 binding	T cruzi inh	Beta cell apopt	Calb FLC	ALR inh	rRNA inh HTS	rRNA inh HTS OD600	rRNA inh HTS RFP
O=c1[nH]c(SCCOc2cccc3ccccc23)nc2ccccc12	-4.7	-1.5	i	5	2	5	-24	12	18	3.6
COc1ccccc1CN1CCN(Cc2ccc3ccccc3c2)CC1	4.0	1.6	i	38	-1	-1	-4	4	-9	3.4
Cn1c(=O)c2c(ncn2CC(=O)Nc2ccccc2)n(C)c1=O	6.7	nt	nt	10	1	-6	-1	nt	nt	nt
N=c1c2ccccc2nc2n1CCCCCCCCCCC2	2.6	4.1	i	38	97*	55	-2	nt	nt	nt
Cc1oc(CC(C)C)cc1C(=O)Nc1ccc(C(=O)O)cc1	-1.4	nt	nt	-3	-6	-7	31	nt	nt	nt
CCC(Oc1ccccc1F)C(=O)NCCCn1ccnc1 (stereo not drawn)	1.4	-2.2	i	-11	0	0	31	2	5	-4.6
Cc1cc(C)n(-c2nnc(NC34CC5CC(CC(C5)C3)C4)nn2)n1	0.3	nt	nt	6	-7	-20	nt	nt	nt	nt
COc1ccc(C(=O)N2CCCC2)cc1S(=O)(=O)N1CCC(C)CC1	1.5	nt	nt	-5	-7	8	-13	nt	nt	nt
O=C(CCc1ccccc1)NCC(=O)N/N=C/c1ccc(O)cc1O	-2.1	1.0	i	-3	9	0	15	-3	8	7.5
O=C(CSc1nncc2ccccc12)Nc1cccc(O)c1	1.0	-11	i	-17	3	-8	nt	1	-3	-0.5
O=C(Nc1cccc(NC(=O)c2ccc(F)cc2)c1)c1ccc(F)cc1	-3.6	-5.9	i	-11	2	4	-69	8	15	-0.7
CCC(=O)NC(c1ccccc1)c1c(O)ccc2ccccc12 (stereo not drawn)	1.0	-2.2	i	2	-3	13	32	-32*	-12*	-2.2*
O=C(O)c1ccnc(SCC(=O)c2ccccc2)c1	2.0	-5.0	i	-24	-3	-1	nt	nt	nt	nt
COC(=O)C(C)Sc1nc2c(cnn2-c2ccc(F)cc2)c(=O)[nH]1 (stereo not drawn)	-0.8	2.2	i	-9	7	6	-13	6	0	-1.4
COc1ccc(CC(=O)NC2CCCCCC2)c(OC)c1	3.7	-2.9	i	-4	-5	-3	nt	2	-3	-1.6
CC1CCN(CC(=O)Nc2ccc(S(=O)(=O)NC3CC3)cc2)CC1	5.2	-0.8	i	-11	-3	2	1	17	13	4.0
CN(C)S(=O)(=O)c1cccc(NC(=O)COC(=O)C2(c3ccccc3F)CCCC2)c1	1.6	-5.4	i	-8	10	-3	-18	-28	-50	-9.8
COc1ccc(OC)c(S(=O)(=O)N2CCNCC2)c1	2.2	3.8	i	-5	0	8	-6	16	11	-2.7
O=C(/C=C/c1ccccc1[N+](=O)[O-])NCc1ccncc1	-0.5	-2.8	i	-4	6	-6	-2	-6	0	-7.5
CC1CCCCC1NC(=O)c1ccc(N2CCCC2=O)cc1 (stereo not drawn)	3.1	nt	nt	-13	-1	-7	5	nt	nt	nt
COc1ccc(C(=O)c2coc3ccc(OC(C)=O)cc23)cc1	1.0	-0.6	i	11	-9	22	1	-2	-9	0.3
Cc1ccc(S(=O)(=O)N2CCC(=O)N(C(CO)Cc3ccccc3)CC2)cc1 (stereo not drawn)	-0.3	-9.1	i	-17	-3	-7	-9	-10	-3	-1.2
CCOc1ccc(CCNC(=O)Cn2cccc2C(=O)c2ccccc2)cc1OCC	-1.4	nt	nt	9	-3	22	-1	nt	nt	nt
O=C(NCCc1nc2ccccc2[nH]1)Nc1ccccc1	?	nt	nt	-14	6	6	-3	nt	nt	nt
CN(C)S(=O)(=O)N1CCC(CCCC2CCN(S(=O)(=O)N(C)C)CC2)CC1	4.3	nt	nt	0	5	-3	-2	nt	nt	nt

Carrying on.
SMILES	RanGTP-Impb inh	MLL AF4-AF9 inh	FGF22 binding	T cruzi inh	Beta cell apopt	Calb FLC	ALR inh	rRNA inh HTS	rRNA inh HTS OD600	rRNA inh HTS RFP
CCOC(=O)CSc1nc2ccccc2c(=O)n1CC	-1.5	nt	nt	6	0	6	-8	nt	nt	nt
CCOc1ccc(NC(=O)COc2ccc(C(=O)NCc3cccc(OC)c3)cc2OC)cc1	nt	-2.4	i	nt	-3	nt	0	1	10	-4.7
CCN1C(c2ccccc2)=C(c2ccccc2)S/C1=C\C=C1/SC(=S)N(C)C1=O	-5.4	nt	nt	22	nt	2	-5	nt	nt	nt
Cc1ccc(C2=CC(=O)C[C@H](c3ccc4c(c3)OCO4)C2)cc1	nt	-37	i	nt	-3	nt	-13	-18	-31	-18
CN(C)S(=O)(=O)N1CCC(Oc2cccc(C(=O)N3CCCCCCC3)c2)CC1	5.4	-0.3	i	10	0	-1	-11	0	-14	3.9
CCn1c(SCC(=O)NCc2ccccc2)nc2c(c1=O)SC(C)C2 (stereo not drawn)	3.3	-7.5	i	8	-1	-2	14	2	-2	-3.3
COc1ccc(C(=O)N2CCOCC2)cc1S(=O)(=O)N1CCCc2ccccc21	-3.0	0.0	i	12	-2	6	0	-2	-4	3.3
CCN(CC)C(=O)c1sc(NC(=O)c2ccc3c(c2)OCO3)c(C#N)c1C	-1.4	nt	nt	0	nt	-1	-2	nt	nt	nt
O=C(C1CN(C(=O)c2cc3cc(Cl)ccc3o2)c2ccccc2O1)N1CCCCC1 (stereo not drawn)	nt	6.0	i	nt	7	nt	-2	-30	-30	-5.9
CC(Oc1ccc2c(-c3ccccc3)cc(=O)oc2c1)C(=O)N1CCC[C@@H]1C(N)=O (stereo partly drawn)	-4.1	-2.0	i	6	-4	-2	-5	3	6	-4.7
O=C(C1CCCCN1S(=O)(=O)c1ccccc1)N1CCN(C(c2ccccc2)c2ccccc2)CC1 (stereo not drawn)	-0.2	nt	nt	44	3	-15	nt	nt	nt	nt
Cn1c(SCC(=O)Nc2ccc3cn[nH]c3c2)nnc1-c1cnccn1	9.6	nt	nt	-20	-7	-1	0	nt	nt	nt

Reprinted at random: seven records from the list
SMILES	RanGTP-Impb inh	MLL AF4-AF9 inh	FGF22 binding	T cruzi inh	Beta cell apopt	Calb FLC	ALR inh	rRNA inh HTS	rRNA inh HTS OD600	rRNA inh HTS RFP
Cc1oc(CC(C)C)cc1C(=O)Nc1ccc(C(=O)O)cc1	-1.4	nt	nt	-3	-6	-7	31	nt	nt	nt
O=C(C1CCCCN1S(=O)(=O)c1ccccc1)N1CCN(C(c2ccccc2)c2ccccc2)CC1 (stereo not drawn)	-0.2	nt	nt	44	3	-15	nt	nt	nt	nt
COc1ccc(CC(=O)NC2CCCCCC2)c(OC)c1	3.7	-2.9	i	-4	-5	-3	nt	2	-3	-1.6
CCC(=O)NC(c1ccccc1)c1c(O)ccc2ccccc12 (stereo not drawn)	1.0	-2.2	i	2	-3	13	32	-32*	-12*	-2.2*
COc1ccccc1NCCC(=O)OCC(=O)NC1CCCCCC1	2.0	1.2	i	-5	-1	0	99*	nt	nt	nt
O=C(C1CN(C(=O)c2cc3cc(Cl)ccc3o2)c2ccccc2O1)N1CCCCC1 (stereo not drawn)	nt	6.0	i	nt	7	nt	-2	-30	-30	-5.9
O=C(CCc1ccccc1)NCC(=O)N/N=C/c1ccc(O)cc1O	-2.1	1.0	i	-3	9	0	15	-3	8	7.5

These rows are one share of the data; rates above refer to the full screens.
